Bioassay records: PubChem BioAssay, Broad Institute
Vaccinia stage: blocks a specific stage of Vaccinia orthopoxvirus infection, primary screen, cell-based, single point. 89,000 tested, 0.01% active. AID 1053133, 2014. Vaccinia-infected cells, mCherry/Venus stage reporter fluorescence; hits give low values; some inactives read as strong as hits. activity change (mCherry), % (test concentration not listed);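 active = mCherry past -33% and 40 or more points under the early reporter, replicates agreeing; inconclusive = past -33% without that gap or agreement; tested in A549 cells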;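 note: scaled between vehicle wells and reference inhibitor wells; 23 nL library stock went into each well; one replicate is shown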
Vaccinia stage Venus: second read-out of Vaccinia stage, no call of its own (marks repeat the call); activity change (Venus), %; measured here: Venus reporter, other viral stage;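 negative = less Venus signal; first of two replicates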
Active calls of the source: *; ? = inconclusive; . = not tested or not shown; & = joins results of further samples.

SMILES | Vaccinia stage | Vaccinia stage Venus
C[C@H](CO)N1C[C@H](C)[C@H](CN(C)C(=O)Nc2ccccc2)Oc2ccc(NS(=O)(=O)c3ccc(Cl)cc3)cc2C1=O | 11 | 16
C[C@H]1CN([C@@H](C)CO)C(=O)c2cc(C3=CCCCC3)cnc2O[C@H]1CN(C)Cc1ccccc1F | -23 | -16
C[C@H]1CN([C@@H](C)CO)C(=O)c2cc(NC(=O)CCCN(C)C)ccc2O[C@H]1CN(C)Cc1ccncc1 | 13 | 3
CN(C)CC(=O)N1C[C@@H]2[C@H](c3ccccc31)[C@H](CO)N2C(=O)c1ccccn1 | 9 | 5
C/C=C/c1cccc(-c2nc(C(=O)NCc3cccc(OC)c3)cc3c2[C@H](CCO)N([S@@](=O)C(C)(C)C)C3)c1 | 1 | 28
C[C@H](CO)N1C[C@H](C)[C@H](CN(C)C(=O)NC2CCCCC2)Oc2c(NS(=O)(=O)c3ccc(Cl)cc3)cccc2C1=O | ? | .
CCS(=O)(=O)N1CCCCN2[C@@H](CO)[C@@H](c3ccc(-c4ccc(C(=O)N(C)C)cc4)cc3)[C@@H]2C1 | 19 | 17
COC(=O)[C@@H]1[C@@H](CO)[C@@H]2Cn3c(ccc(-c4ccccc4)c3=O)[C@H]1N2CC1CCCC1 | -10 | -5
Cc1noc(C)c1NC(=O)Nc1ccc2c(c1)C(=O)N([C@@H](C)CO)C[C@@H](C)[C@H](CN(C)C(=O)NC1CCCCC1)OCCCC[C@H](C)O2 | 19 | 7
COc1ccccc1S(=O)(=O)N(C)C[C@@H]1OCc2cnnn2CCCC(=O)N([C@H](C)CO)C[C@H]1C | 5 | 5
C[C@H](CO)N1C[C@H](C)[C@H](CN(C)C(=O)Nc2ccc3c(c2)OCO3)Oc2cc(C3=CCCC3)ccc2S1(=O)=O | -8 | -10
COCC(=O)Nc1ccc2c(c1)C(=O)N(C)[C@@H]1CC[C@H](CC(=O)NCCc3ccccc3)O[C@H]1CO2 | 9 | 0
Cc1noc(C)c1NC(=O)Nc1cccc2c1O[C@@H](CN(C)C)[C@@H](C)CN([C@@H](C)CO)C2=O | 18 | 5
C[C@H]1CCCCO[C@@H](CN(C)C(=O)Nc2ccc(F)cc2)[C@@H](C)CN([C@@H](C)CO)C(=O)c2cc(NC(=O)c3ccncc3)ccc2O1 | 1 | -1
O=C(Cc1cccnc1)N1CC(=O)N2[C@H](CO)[C@@H](c3ccc(/C=C/c4ccccc4)cc3)[C@H]2C1 | -30 | -14
CCC(=O)N1CC2(C1)[C@@H](c1ccccc1)[C@@H](CO)N2Cc1ccccc1OC | 4 | 1
CO[C@H]1CN(C)C(=O)c2cc(NC(=O)Nc3cccc(Cl)c3)ccc2OC[C@@H](C)NC[C@H]1C | -34 | -15
CC(=O)N(C)C[C@H]1Oc2ncc(-c3ccc(C(=O)N(C)C)cc3)cc2C(=O)N([C@H](C)CO)C[C@H]1C | 9 | 11
CCCNC(=O)Nc1ccc2c(c1)C(=O)N(C)C[C@H](OC)[C@H](C)CN(C(=O)C1CCC1)[C@H](C)CO2 | -1 | -4
CO[C@@H]1CN(C)C(=O)c2ccc(NS(C)(=O)=O)cc2OC[C@H](C)N(CC2CC2)C[C@@H]1C | -1 | 2
Cc1ccc(S(=O)(=O)N(C)C[C@H]2Oc3ccc(NC(=O)NC(C)C)cc3C(=O)N([C@H](C)CO)C[C@@H]2C)cc1 | 1 | 5
COc1ccc(S(=O)(=O)Nc2ccc3c(c2)C(=O)N([C@H](C)CO)C[C@H](C)[C@@H](CN(C)CC2CC2)OCCCC[C@@H](C)O3)cc1 | 11 | 5
Cc1noc(C)c1S(=O)(=O)N(C)C[C@H]1OCCCC[C@H](C)Oc2ccc(NC(=O)c3ccccc3)cc2C(=O)N([C@H](C)CO)C[C@H]1C | -11 | -6
COc1ccc(S(=O)(=O)Nc2ccc3c(c2)C(=O)N([C@@H](C)CO)C[C@H](C)[C@H](CN(C)Cc2ccc(C(F)(F)F)cc2)OCCCC[C@H](C)O3)cc1 | ? | .
O=C(c1ccccn1)N1CC[C@@H]2[C@H]1c1cc(-c3ccccc3)ccc1N[C@@H]2CO | -31 | -26
C[C@H](CO)N1C[C@H](C)[C@H](CN(C)C(=O)Nc2ccc(C(F)(F)F)cc2)Oc2c(NS(=O)(=O)c3cn(C)cn3)cccc2C1=O | 12 | 7
C[C@@H]1CCCCO[C@H](CN(C)C(=O)C2CCCCC2)[C@H](C)CN([C@H](C)CO)C(=O)c2cc(NC(=O)CCC(F)(F)F)ccc2O1 | -23 | -21
CO[C@H]1CN(C)C(=O)c2ccc(NC(C)=O)cc2OC[C@H](C)N(C(=O)C2CC2)C[C@@H]1C | 4 | 9
COc1ccc(NC(=O)Nc2ccc3c(c2)C(=O)N([C@@H](C)CO)C[C@H](C)[C@@H](CN(C)C(=O)Nc2ccc(C(F)(F)F)cc2)O3)cc1 | 5 | 6
CCN1[C@@H]2c3ccc(-c4ccc(OC)cc4)c(=O)n3C[C@H]1[C@H](CO)[C@H]2C(=O)OC | 17 | 6
C[C@@H]1CN([C@H](C)CO)C(=O)c2cc(C3=CCCC3)cnc2O[C@@H]1CN(C)Cc1cccnc1 | 21 | 12
CO[C@@H]1CN(C)C(=O)c2ccc(NC(C)=O)cc2OC[C@@H](C)N(C(=O)Cc2cccnc2)C[C@H]1C | -6 | 0
CN(C)CCCNC(=O)C[C@@H]1CC[C@H]2[C@@H](COc3ccc(NC(=O)c4ccc5c(c4)OCO5)cc3C(=O)N2C)O1 | 7 | 7
C[C@H]1CN([C@@H](C)CO)C(=O)c2cccc(NC(=O)C3CCCCC3)c2O[C@@H]1CN(C)CC1CCCCC1 | 16 | 13
Cc1cc(C(=O)Nc2cccc3c2O[C@@H](CN(C)C(=O)Nc2c(C)noc2C)[C@H](C)CN([C@H](C)CO)C3=O)n(C)n1 | 12 | 0
Cn1cnc(S(=O)(=O)N2C[C@@H](O)COC[C@@H]3O[C@H](CC(=O)NCc4cc(F)cc(F)c4)CC[C@H]32)c1 | 8 | 5
C[C@@H]1CN([C@@H](C)CO)C(=O)c2cc(N(C)C)ccc2O[C@@H](C)CCCCO[C@H]1CN(C)Cc1ccc(C(F)(F)F)cc1 | ? | .
CCCN(C)C[C@@H]1Oc2cc(C#Cc3ccncc3)ccc2S(=O)(=O)N([C@@H](C)CO)C[C@@H]1C | -25 | -18
C[C@H]1CN([C@@H](C)CO)S(=O)(=O)c2ccc(-c3cccc(C(=O)N(C)C)c3)cc2O[C@H]1CN(C)Cc1ccc2c(c1)OCO2 | -33 | -23
C[C@H]1CN([C@@H](C)CO)C(=O)c2cccc(NS(C)(=O)=O)c2O[C@H]1CN(C)S(=O)(=O)c1cn(C)cn1 | 3 | 4
C[C@@H]1CN([C@@H](C)CO)C(=O)c2cc(NC(=O)CCN3CCOCC3)ccc2O[C@@H]1CN(C)Cc1ccc(C(=O)Nc2ccccc2N)cc1 | -3 | -9
COCC(=O)N1[C@@H](CO)[C@@H](c2ccccc2)C12CN(Cc1ccccc1)C2 | 8 | 12
C[C@H](CO)N1C[C@H](C)[C@@H](CN(C)C(=O)c2ccncc2)OCc2ccccc2-c2c(n(C)c3ccccc23)C1=O | 11 | 2
C[C@H]1CN([C@@H](C)CO)S(=O)(=O)c2ccc(Br)cc2O[C@H]1CN(C)C(=O)c1cnccn1 | 7&3 | 3&-4
Cc1noc(C)c1NC(=O)N(C)C[C@H]1OCCCC[C@@H](C)Oc2ccc(NC(=O)c3ccncc3)cc2C(=O)N([C@H](C)CO)C[C@@H]1C | 19 | 9
C[C@@H]1CN([C@H](C)CO)S(=O)(=O)c2ccc(-c3ccncc3)cc2O[C@@H]1CN(C)Cc1ccccc1 | ? | .
O=C(Nc1ccccc1)[C@H]1[C@H](CO)[C@H]2Cn3c(cccc3=O)[C@@H]1N2C(=O)c1ccc(F)cc1 | 8 | 7
O=C(C[C@H]1CC[C@H](NC(=O)C2CCC2)[C@@H](CO)O1)NC1CCC1 | -7 | -2
CCS(=O)(=O)N1CC2(CN(C(=O)Cc3ccccn3)[C@@H](CO)c3[nH]c4cc(OC)ccc4c32)C1 | 4 | 3
Cc1ccc(S(=O)(=O)Nc2ccc3c(c2)C(=O)N(C)[C@H]2CC[C@@H](CC(=O)NCCc4ccncc4)O[C@H]2CO3)cc1 | 1 | 7

A portion taken from the entries so far, for reference:
SMILES | Vaccinia stage | Vaccinia stage Venus
C[C@H]1CN([C@@H](C)CO)C(=O)c2cccc(NS(C)(=O)=O)c2O[C@H]1CN(C)S(=O)(=O)c1cn(C)cn1 | 3 | 4
C[C@@H]1CN([C@@H](C)CO)C(=O)c2cc(NC(=O)CCN3CCOCC3)ccc2O[C@@H]1CN(C)Cc1ccc(C(=O)Nc2ccccc2N)cc1 | -3 | -9
COCC(=O)N1[C@@H](CO)[C@@H](c2ccccc2)C12CN(Cc1ccccc1)C2 | 8 | 12
C[C@H](CO)N1C[C@H](C)[C@@H](CN(C)C(=O)c2ccncc2)OCc2ccccc2-c2c(n(C)c3ccccc23)C1=O | 11 | 2
C[C@H]1CN([C@@H](C)CO)S(=O)(=O)c2ccc(Br)cc2O[C@H]1CN(C)C(=O)c1cnccn1 | 7&3 | 3&-4
Cc1noc(C)c1NC(=O)N(C)C[C@H]1OCCCC[C@@H](C)Oc2ccc(NC(=O)c3ccncc3)cc2C(=O)N([C@H](C)CO)C[C@@H]1C | 19 | 9
C[C@@H]1CN([C@H](C)CO)S(=O)(=O)c2ccc(-c3ccncc3)cc2O[C@@H]1CN(C)Cc1ccccc1 | ? | .
O=C(Nc1ccccc1)[C@H]1[C@H](CO)[C@H]2Cn3c(cccc3=O)[C@@H]1N2C(=O)c1ccc(F)cc1 | 8 | 7
O=C(C[C@H]1CC[C@H](NC(=O)C2CCC2)[C@@H](CO)O1)NC1CCC1 | -7 | -2

More results.
SMILES | Vaccinia stage | Vaccinia stage Venus
CCCNC(=O)N1[C@@H]2CN(C(=O)C3CCC3)c3ccccc3[C@@H]2[C@@H]1CO | 12 | 4
CCC(=O)Nc1ccc2c(c1)C(=O)N(C)C[C@H](OC)[C@@H](C)CN(CC1CC1)[C@H](C)CO2 | 10 | 11
C[C@@H]1CCCCO[C@H](CN(C)Cc2ccc(C(=O)O)cc2)[C@H](C)CN([C@@H](C)CO)C(=O)c2cc(NC(=O)Nc3ccc(F)cc3)ccc2O1 | 24 | 15
COCC#Cc1ccc2c(c1)O[C@@H](CN(C)S(=O)(=O)c1cccc(F)c1)[C@@H](C)CN([C@H](C)CO)S2(=O)=O | -10&-1 | -10&-5
C[C@H](CO)N1C[C@H](C)[C@@H](CN(C)S(=O)(=O)c2ccccc2)OCCCC[C@H](C)Oc2ccc(NS(=O)(=O)c3cccs3)cc2C1=O | -16 | -7
O=C(C[C@@H]1C[C@H]2c3cc(NC(=O)C4CCC4)ccc3O[C@H]2[C@@H](CO)O1)NCc1cccc(F)c1 | -6 | 3
COc1ccc(NC(=O)N(C)C[C@@H]2Oc3ccc(NC(=O)CCC(F)(F)F)cc3CC(=O)N([C@@H](C)CO)C[C@@H]2C)cc1 | -2 | 5
Cc1noc(C)c1NC(=O)Nc1ccc2c(c1)C(=O)N([C@@H](C)CO)C[C@H](C)[C@@H](CN(C)C(=O)NC(C)C)O2 | 24 | 23
COc1ccc(CN(C)C[C@H]2Oc3ccc(NC(=O)CCN4CCOCC4)cc3C(=O)N([C@@H](C)CO)C[C@@H]2C)cc1 | 21 | 15
C[C@H]1CN([C@@H](C)CO)S(=O)(=O)c2ccc(C3=CCCC3)cc2O[C@H]1CN(C)C(=O)Cc1ccncc1 | 30 | 24
C[C@H]1CN([C@@H](C)CO)C(=O)CCCn2nncc2CO[C@H]1CN(C)S(=O)(=O)c1ccccc1 | 18&0 | 14&-4
O=C(c1ccccc1F)N1CC2(C1)[C@@H](c1ccccc1)[C@@H](CO)N2CC1CCOCC1 | 16 | 9
CO[C@H]1CN(C)C(=O)c2ccc(NC(C)=O)cc2OC[C@@H](C)N(C(=O)CC2CC2)C[C@H]1C | 4 | 2
O=C(c1ccc(F)cc1)N1CC(=O)N2[C@H](CO)[C@H](c3ccc(-c4ccccc4F)cc3)[C@@H]2C1 | 1 | -1
O=C(C[C@H]1CC[C@@H](NC(=O)c2ccc3c(c2)OCO3)[C@@H](CO)O1)NCc1ccc(Oc2ccccc2)cc1 | -28 | -26
CCCNC(=O)N(C)C[C@@H]1Oc2ncc(C#CCC3CCCC3)cc2C(=O)N([C@H](C)CO)C[C@@H]1C | -9 | -12
C[C@@H]1CN([C@H](C)CO)C(=O)c2cccc(NC(=O)C3CCCCC3)c2O[C@@H]1CN(C)S(=O)(=O)c1ccc(F)cc1 | -3 | -5
C[C@H]1CN([C@@H](C)CO)C(=O)c2cc(-c3ccc(C#N)cc3)cnc2O[C@@H]1CN(C)CC1CCOCC1 | 15 | 6
O=C(c1ccccn1)N1CC(=O)N2[C@@H](CO)[C@@H](c3ccc(C#CCc4ccccc4)cc3)[C@@H]2C1 | 0 | -4
C[C@@H]1CN([C@H](C)CO)C(=O)c2cc(-c3cccc(F)c3)cnc2O[C@@H]1CN(C)C(=O)c1cnccn1 | 14 | 3
C[C@@H]1CN([C@H](C)CO)C(=O)c2c(c3ccccc3n2C)-c2ccccc2CO[C@H]1CN(C)Cc1ccccc1C(F)(F)F | ? | .
C[C@@H]1CN([C@@H](C)CO)C(=O)c2cccc(NC(=O)Nc3ccc4c(c3)OCO4)c2O[C@H]1CN(C)S(=O)(=O)c1ccccc1 | 8 | 8
O=C([C@H]1[C@H](CO)[C@H]2Cn3c(ccc(-c4ccccc4)c3=O)[C@@H]1N2CCC(F)(F)F)N1CCOCC1 | -7 | 0
C[C@@H]1CN([C@H](C)CO)C(=O)c2cccc(NC(=O)Nc3ccc(F)cc3)c2O[C@H]1CN(C)C | 7 | -1
C[C@@H]1CN([C@H](C)CO)C(=O)c2cc(NS(=O)(=O)c3cn(C)cn3)ccc2O[C@H]1CN(C)C(=O)Nc1ccccc1 | -1 | -10

The list is partial; rates above refer to the full screens.
